BJeLR viability = MLPCN primary cell-based screen for lethality selective to Ras in HRASV12 cells; 300,000 compounds, 0.17% hits; inhibition, % (concentration not given with the values); BJeLR (HRASV12) viability, CellTiter-Glo ATP luminescence, 48 h; reference of the scale not given here;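 active = replicate mean above 50%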;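 also: 50 nL library stock added to about 25 µL; numbers are from one replicate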
Sa RN4220 lethal = growth inhibition of S. aureus RN4220, primary screen, OD600; 330,000 compounds, 0.33% hits; inhibition, % (concentration not given with the values); 16 h;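 active = z-score of -3 or lower and OD600 up to 0.18 on both plates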;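 also: plate controls were untreated cells for no effect and reference antibiotic for full effect; stock transfer was 100 nL into about 80 µL; one replicate is shown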
ugtP null kill = growth inhibition of ugtP-null S. aureus, primary screen, RN4220 ugtP deletion, OD600 | 16 h; some inactives read as strong as hits | growth inhibition, % (test concentration not listed) | 330,000 compounds, 0.54% hits;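 active = z-score under -3 and OD600 up to 0.15 on both plates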;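 also: plate controls were untreated wells for no effect and antibiotic for full effect; wells of about 80 µL received 100 nL stock; the first replicate is given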
Mtb hypoxia rep = PubChem AID 1159583 | 300,000 compounds, 0.1% hits | M. tuberculosis hypoxia-regulated fluorescent reporter, fluorescence | fluorescence inhibition, % (no concentration beside the values);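 active = 35 to 45% if threefold the growth effect, above 45% if 1.5-fold the growth effect; inactive = the rest, general growth blockers included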;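 also: wells of about 50 µL received 100 nL stock; 0% = vehicle wells and 100% = reference inhibitor wells; whole bacteria with a GFP reporter of the hypoxia response; strong numbers were not always called active; many hits fall short of the cut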
Bead autofluor = compound fluorescence in toxin protease inhibitor counterscreen; compound autofluorescence counterscreen, microsphere flow cytometry; hits give high values; fluorescence intensity (no concentration beside the values); 360,000 compounds, 3.1% hits; AID 624483;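 active = at least 3 SD above the mean of all compounds, about 16000 in these data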;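 also: 100 nL of 1 mM stock went into each well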
PrP UTR inh = inhibition of PrP 5' UTR reporter expression. 340,000 compounds, 0.35% hits. AID 488862, 2010. inhibition, % (test concentration not listed). cell-based PrP 5' UTR mRNA reporter, plate reader;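 active = every replicate at 50% or more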;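 also: 0 = median of the neutral control wells; tested in H4 reporter cells; numbers are from one replicate; inactives centre near -14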
Mtb hypoxia rep growth = recorded beside Mtb hypoxia rep, whose call it bears; growth inhibition, %; measured here: M. tuberculosis growth (absorbance);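 0% = vehicle and 100% = reference antibiotic; read after six days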
An asterisk follows results filed as active; & = joins results of further samples.

Results for Cc1ccc(S(=O)(=O)Nc2ccc(C(=O)NCc3ccncc3)cc2)cc1 ?
BJeLR viability: -5; Sa RN4220 lethal: 1.5; ugtP null kill: 0; Mtb hypoxia rep: -13; Bead autofluor: 5379; PrP UTR inh: -3; Mtb hypoxia rep growth: 1

How did CCCOC(=O)CSc1nc(N)c(C#N)c(-c2ccco2)c1C#N do in these assays?
BJeLR viability: -6; Sa RN4220 lethal: -0.6; ugtP null kill: -6; Mtb hypoxia rep: -88; Bead autofluor: 4186; PrP UTR inh: 13; Mtb hypoxia rep growth: -19

Results for COc1ccc(NC(=O)CSc2nnc(-c3ccco3)n2C)cc1 ?
BJeLR viability: 1; Sa RN4220 lethal: 1.3; ugtP null kill: 2; Mtb hypoxia rep: 5; Bead autofluor: 2769; PrP UTR inh: -22; Mtb hypoxia rep growth: 8

How did CCOC(=O)C1C2COc3cc(OC)ccc3C2N2C(=O)N(c3cccc(Cl)c3)C(=O)[C@]12C (some centres undefined) do in these assays?
Sa RN4220 lethal: 5.9; ugtP null kill: 2; Mtb hypoxia rep: -3; Mtb hypoxia rep growth: 2

What do the screens show for `CSc1nnc(-c2cnccn2)n1Cc1ccccc1`?
BJeLR viability: 12; Sa RN4220 lethal: 1.4; ugtP null kill: -1; Mtb hypoxia rep: 5; Bead autofluor: 11269; PrP UTR inh: 9; Mtb hypoxia rep growth: 11

How did COc1ccc2c(c1)C1(Nc3ccccc3-c3nc4ccccc4n31)C(=O)N2C (centres undefined) do in these assays?
Sa RN4220 lethal: 2.7; ugtP null kill: -9; Bead autofluor: 2641; PrP UTR inh: -8

Results for O=C(Nc1ccccc1Cl)c1ccc(Cl)cc1Cl ?
BJeLR viability: -6; Sa RN4220 lethal: 15; ugtP null kill: 5; Mtb hypoxia rep: 4; Bead autofluor: 1981; PrP UTR inh: -21; Mtb hypoxia rep growth: 1

How did O=C(NN=Cc1ccc[nH]1)c1ccc([N+](=O)[O-])cc1 do in these assays?
Sa RN4220 lethal: 4.7; ugtP null kill: -1; Mtb hypoxia rep: 0; Mtb hypoxia rep growth: 9

Results for CCCCOc1ccc(N(CC(=O)NCC2CCCO2)C(=O)CCC(=O)Nc2cc(C)ccn2)cc1 (centres undefined) ?
BJeLR viability: 1; Sa RN4220 lethal: -0.4; ugtP null kill: -7; Mtb hypoxia rep: -7; Bead autofluor: 3789; PrP UTR inh: -2; Mtb hypoxia rep growth: 1

What do the screens show for `CC(C)CCNC(=O)C1CCN(c2nnc(-n3cccc3)s2)CC1`?
BJeLR viability: -3; Sa RN4220 lethal: 2.9; ugtP null kill: 10; Mtb hypoxia rep: 4; Bead autofluor: 5398; PrP UTR inh: -22; Mtb hypoxia rep growth: 7

What do the screens show for `O=C(CSCc1ccc(Br)cc1)N=Nc1c(O)[nH]c2ccccc12`?
BJeLR viability: 1; Sa RN4220 lethal: 1.5; ugtP null kill: -12; Mtb hypoxia rep: 3; Bead autofluor: 2293; PrP UTR inh: 4; Mtb hypoxia rep growth: 0

What do the screens show for `COC(=O)[C@@H]1C[C@@]2(O)[C@H](O)[C@H](O)[C@H](O)C[C@H]2N1Cc1ccc(C(C)(C)C)cc1`?
BJeLR viability: 4; Bead autofluor: 3682; PrP UTR inh: -32

Results for O=C(NN=Cc1ccc(OC(=O)c2cccs2)cc1)c1ccc(Cl)cc1 ?
Sa RN4220 lethal: 7.7; ugtP null kill: -7; Mtb hypoxia rep: 8; Mtb hypoxia rep growth: 4

What do the screens show for `NC(=O)c1nsc(C(=O)N(c2ccccc2)C(C(=O)NC2CCCC2)c2ccncc2)c1N` (centres undefined)?
BJeLR viability: -2; Sa RN4220 lethal: 4.5; ugtP null kill: -1; Mtb hypoxia rep: 4; Bead autofluor: 3737; PrP UTR inh: 8; Mtb hypoxia rep growth: 10

Results for Cn1c(CNc2ccc(F)cc2)nc2ccccc21 ?
BJeLR viability: 8; Sa RN4220 lethal: -1.2; ugtP null kill: 6; Mtb hypoxia rep: 10; Bead autofluor: 3340; PrP UTR inh: -57; Mtb hypoxia rep growth: 6

Results for COC(=O)C1CCN(CC(N)=O)CC1 ?
BJeLR viability: -2; Sa RN4220 lethal: 2.3; ugtP null kill: -12; Bead autofluor: 4555; PrP UTR inh: -11

What do the screens show for `CCCOc1ccc(N2C(=O)CC(NCC#N)C2=O)cc1` (centres undefined)?
BJeLR viability: -8; Sa RN4220 lethal: -1.4; ugtP null kill: 5; Mtb hypoxia rep: 7; Bead autofluor: 4292; PrP UTR inh: -14; Mtb hypoxia rep growth: 2

How did COc1ccccc1/C=N/NC(=O)c1cc2c(ccc3ccccc32)o1 do in these assays?
BJeLR viability: 4; Bead autofluor: 3858; PrP UTR inh: -14

How did CCc1ccc(-n2c(O)c(C=NCCN(CC)CC)c(=O)[nH]c2=O)cc1 do in these assays?
Sa RN4220 lethal: 0.3; ugtP null kill: 0; Mtb hypoxia rep: -5; Bead autofluor: 9491; PrP UTR inh: 2; Mtb hypoxia rep growth: 3

What do the screens show for `COc1ccc(C(=O)NCC(=O)N2CCCC(C)C2)cc1OC` (centres undefined)?
BJeLR viability: -8; Sa RN4220 lethal: 2.8; ugtP null kill: 3; Mtb hypoxia rep: 0; Bead autofluor: 3197; PrP UTR inh: 6; Mtb hypoxia rep growth: 7

How did O=C(CCc1ccccc1)Nc1ccccc1C(=O)NCc1ccco1 do in these assays?
BJeLR viability: -16; Sa RN4220 lethal: 4.2; ugtP null kill: -6; Mtb hypoxia rep: 1; Bead autofluor: 4156; PrP UTR inh: -1; Mtb hypoxia rep growth: 1

Results for CCNC(=O)CSc1nc2ccccc2c(=O)n1CCCOC(C)C ?
BJeLR viability: 10; Sa RN4220 lethal: 2.6; ugtP null kill: 0; Mtb hypoxia rep: 9; Bead autofluor: 9873; PrP UTR inh: -11; Mtb hypoxia rep growth: 11

What do the screens show for `COc1ccc(C2=C(N)c3ccccc3C2=O)cc1`?
BJeLR viability: 1; Sa RN4220 lethal: 15; ugtP null kill: 9; Mtb hypoxia rep: 8; Bead autofluor: 7747; PrP UTR inh: -83; Mtb hypoxia rep growth: 5

How did S=c1[nH]c(-c2ccccc2)cn1N=Cc1ccncc1 do in these assays?
Sa RN4220 lethal: 4.5; ugtP null kill: -3; Mtb hypoxia rep: 2; Mtb hypoxia rep growth: -1

How did C=C(C)c1cccc(C(C)(C)NC(=O)N2CCN(c3ccccn3)CC2)c1 do in these assays?
BJeLR viability: -4; Sa RN4220 lethal: -2.1; ugtP null kill: -3; Mtb hypoxia rep: 2; Bead autofluor: 5420; PrP UTR inh: -19; Mtb hypoxia rep growth: 4

How did CCOc1ccc(N2CC(O)=C(c3ccccc3)C2=N)cc1 do in these assays?
BJeLR viability: 0; Sa RN4220 lethal: 5.7; ugtP null kill: -1; Mtb hypoxia rep: 7; Bead autofluor: 4114; PrP UTR inh: -20; Mtb hypoxia rep growth: 12

Results for CCOc1ccc(Nc2nc(-c3sc(N)nc3C)cs2)cc1 ?
BJeLR viability: 10; Sa RN4220 lethal: 0.2; ugtP null kill: -3; Mtb hypoxia rep: 9; Bead autofluor: 3501; PrP UTR inh: -67; Mtb hypoxia rep growth: 11

How did O=C1CCC(C(=O)N2CCC(O)CC2)CN1CCc1ccc(Cl)cc1 (centres undefined) do in these assays?
BJeLR viability: 3; Sa RN4220 lethal: -0.4; ugtP null kill: 7; Mtb hypoxia rep: 2; Bead autofluor: 4947; PrP UTR inh: -3; Mtb hypoxia rep growth: 10

What do the screens show for `O=C(CSc1nc(=O)n(CCCN2CCOCC2)c2c1CCC2)Nc1ccc(F)cc1F`?
BJeLR viability: 0; Sa RN4220 lethal: 2.0; ugtP null kill: 3; Mtb hypoxia rep: 14; PrP UTR inh: -23; Mtb hypoxia rep growth: 1

How did COc1ccc2sc(N(CCCN(C)C)C(=O)c3nc4ccccc4s3)nc2c1 do in these assays?
BJeLR viability: 24; Sa RN4220 lethal: 1.2; ugtP null kill: -5; Mtb hypoxia rep: 6; Bead autofluor: 4539; PrP UTR inh: -18; Mtb hypoxia rep growth: -4

Results for CC(C)(C)c1ccccc1NC(=O)Cn1cnc2cc([N+](=O)[O-])ccc2c1=O ?
BJeLR viability: 4; Sa RN4220 lethal: -1.0; ugtP null kill: 10; Mtb hypoxia rep: -9; Bead autofluor: 5150; PrP UTR inh: 45; Mtb hypoxia rep growth: 2

Results for CC(=O)NC1=NN(C(C)=O)C(C)(CS(=O)(=O)c2ccc(Cl)cc2)S1 (centres undefined) ?
BJeLR viability: 2; Sa RN4220 lethal: -3.1; ugtP null kill: 6; Bead autofluor: 4779; PrP UTR inh: -5

What do the screens show for `O=C(CN1CCN(Cc2ccc(Cl)cc2)CC1)NN=Cc1ccncc1`?
Sa RN4220 lethal: 2.5; ugtP null kill: 7; Mtb hypoxia rep: 1; Mtb hypoxia rep growth: 5

What do the screens show for `COCCN1C(=O)NC(c2ccco2)C(C(C)=O)=C1C` (centres undefined)?
Sa RN4220 lethal: -0.1; ugtP null kill: -11; Mtb hypoxia rep: 0; Mtb hypoxia rep growth: 2

Results for CCc1nnc(NS(=O)(=O)c2ccc(NC(=S)NC(=O)c3cccnc3)cc2)s1 ?
BJeLR viability: 7; Sa RN4220 lethal: 11; ugtP null kill: 18; Mtb hypoxia rep: 15; Bead autofluor: 4433; PrP UTR inh: 3; Mtb hypoxia rep growth: 2

What do the screens show for `COc1ccc(N(CC(=O)Nc2cc(Cl)ccc2OC)S(=O)(=O)c2c(C)[nH]c(=O)[nH]c2=O)cc1`?
BJeLR viability: -2; Sa RN4220 lethal: -2.0; ugtP null kill: -2; Mtb hypoxia rep: -3; Bead autofluor: 5052; PrP UTR inh: -2; Mtb hypoxia rep growth: -1

What do the screens show for `Cc1ccc(S(=O)(=O)N2CCN(C(=O)Cc3ccc4c(c3)OCCO4)CC2)cc1C`?
BJeLR viability: -1; Sa RN4220 lethal: 1.5; ugtP null kill: 9; Mtb hypoxia rep: 6; Bead autofluor: 6996; PrP UTR inh: -12; Mtb hypoxia rep growth: 3

Results for C/C(=N/NC(=O)CN1CCN(S(=O)(=O)c2ccc(C)cc2)CC1)c1ccco1 ?
BJeLR viability: -4; Bead autofluor: 5208; PrP UTR inh: -41

Results for Cc1cc(F)ccc1S(=O)(=O)Nc1ccccc1C(=O)Nc1ccc2[nH]c(=O)[nH]c2c1 ?
BJeLR viability: 3; Sa RN4220 lethal: -6.3; ugtP null kill: -1; Mtb hypoxia rep: 2; Bead autofluor: 2598; PrP UTR inh: -4; Mtb hypoxia rep growth: -2

How did O=c1cc2c(n[nH]1)CCCC2 do in these assays?
BJeLR viability: -9; Sa RN4220 lethal: 0.2; ugtP null kill: -3; Bead autofluor: 2791; PrP UTR inh: -11

How did CC1=C(C(=O)OCc2ccc3c(c2)OCO3)C(c2cccc([N+](=O)[O-])c2)NC(=O)N1 (centres undefined) do in these assays?
BJeLR viability: 9; Sa RN4220 lethal: 3.3; ugtP null kill: -2; Mtb hypoxia rep: 1; Bead autofluor: 4327; PrP UTR inh: 22; Mtb hypoxia rep growth: 5

How did OCCC1CC(O)C(O)[C@@]2(CCCO2)O1 (some centres undefined) do in these assays?
Sa RN4220 lethal: 2.5&2.7; ugtP null kill: 10&-8; Mtb hypoxia rep: 5&2; Mtb hypoxia rep growth: 3&7

Molecules above containing a tert-butyl group:
What do the screens show for `COC(=O)[C@@H]1C[C@@]2(O)[C@H](O)[C@H](O)[C@H](O)C[C@H]2N1Cc1ccc(C(C)(C)C)cc1`?
BJeLR viability: 4; Bead autofluor: 3682; PrP UTR inh: -32

Results for CC(C)(C)c1ccccc1NC(=O)Cn1cnc2cc([N+](=O)[O-])ccc2c1=O ?
BJeLR viability: 4; Sa RN4220 lethal: -1.0; ugtP null kill: 10; Mtb hypoxia rep: -9; Bead autofluor: 5150; PrP UTR inh: 45; Mtb hypoxia rep growth: 2

2 entries drawn at random from the list so far:
How did C=C(C)c1cccc(C(C)(C)NC(=O)N2CCN(c3ccccn3)CC2)c1 do in these assays?
BJeLR viability: -4; Sa RN4220 lethal: -2.1; ugtP null kill: -3; Mtb hypoxia rep: 2; Bead autofluor: 5420; PrP UTR inh: -19; Mtb hypoxia rep growth: 4

How did S=c1[nH]c(-c2ccccc2)cn1N=Cc1ccncc1 do in these assays?
Sa RN4220 lethal: 4.5; ugtP null kill: -3; Mtb hypoxia rep: 2; Mtb hypoxia rep growth: -1

Bioassay records: PubChem, several laboratories
